High-throughput results: PubChem BioAssay, National Center for Advancing Translational Sciences (NCATS)
D2 PAM: positive allosteric modulators of human D2 dopamine receptor | AID 624464 | P14416 | potentiation, % (test concentration not listed) | 360,000 compounds, 0.23% hits | DiscoveRx D2 beta-arrestin cells, luminescence, 90 min; 100% = 57 uM dopamine signal; active = potentiation of 50% or more; inconclusive = 30% to 50%; inactive = 30% or less;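 note: compound concentration not given in the record; tested on top of an EC20 dose of dopamine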
Target sequence (P14416 whole entry, looked up): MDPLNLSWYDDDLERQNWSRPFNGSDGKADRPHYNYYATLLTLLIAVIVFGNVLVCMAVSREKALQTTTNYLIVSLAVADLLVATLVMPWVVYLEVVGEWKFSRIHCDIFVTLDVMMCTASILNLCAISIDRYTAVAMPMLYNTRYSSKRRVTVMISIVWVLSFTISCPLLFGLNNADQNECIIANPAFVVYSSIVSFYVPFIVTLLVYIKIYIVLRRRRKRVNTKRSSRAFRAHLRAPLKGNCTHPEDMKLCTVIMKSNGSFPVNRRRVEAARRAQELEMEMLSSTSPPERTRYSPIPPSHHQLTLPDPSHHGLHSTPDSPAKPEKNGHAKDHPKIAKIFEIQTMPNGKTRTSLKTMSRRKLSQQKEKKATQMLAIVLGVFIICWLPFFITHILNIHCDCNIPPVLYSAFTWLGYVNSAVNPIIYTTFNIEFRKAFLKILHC
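D2 cells co-treated with compound plus 50 nM dopamine (EC20) for 90 min at 37 deg C to detect potentiation. Beta-arrestin recruitment was read as enzyme-fragment luminescence after 1 h at ambient temperature. Full response was set by 57 uM dopamine.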
Menin MLL FP FL: inhibitors of human menin-MLL interaction, wild-type MLL peptide | Fluorescence polarization, fluorescein-MLL peptide displacement from menin | FP activity change, % at 61.4 µM | 290,000 tested, under 10 active; inconclusive = falling polarisation curve, or a change in total fluorescence; inactive = total fluorescence flat and polarisation flat or rising; no compound was filed as active; the % refers to the polarisation; negative = inhibition;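 note: % of control where 0% means no effect; inhibitors lower the polarisation; unlabelled MLL peptide was the positive control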
gsp antag: gsp mutant antagonism; 340,000 compounds, 0.4% hits; Potency, µM (titrated, usually from 76.9 µM), without a hit: at the top dose activity change, negative = inhibition, hits mostly inhibitors; AID 624288; gsp-mutant cells, cAMP HTRF, 30 min; control for the full effect not named in the record; active = falling curve of any shape with a large fitted effect; inconclusive = falling curve, mostly with a smaller effect; inactive = flat or rising curve; cell line not stated here;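 note: intracellular cAMP measured with PDE inhibitor Ro 20-1724 present during compound exposure; potency is the fitted concentration of half-maximal effect; % is set by controls: 0 for no effect and ±100 for the full control effect; nearly all actives have a fitted effect of over 65% in size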
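Measurement of cellular cAMP by homogeneous time-resolved fluorescence following a 30 min compound exposure at 37C. The PDE inhibitor […] was present throughout; the assay buffer was DPBS with 0.05% BSA and 0.005% Tween 20.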
TRPV1 potentiator: human TRPV1 potentiation | AID 540277 | Q8NER1 | TRPV1-expressing cells, Fluo-8 calcium influx, capsaicin EC20 potentiation; host cell line not named in the record; control for the full effect not named in the record | potentiation, % at 8.33 µM | 320,000 compounds, 0.02% hits; active means potentiation above 80%; inconclusive means 30% to 80%; inactive means below 30%; note: 0% is about no effect
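Fluo-8 calcium influx in TRPV1-expressing cells, kinetic read (ex 480/em 520 nm). Compound added and read 3 min for agonist activity, followed by capsaicin at EC20 final and 2 min further read for enhancement.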
Sfp inh: inhibitors of Bacillus subtilis Sfp phosphopantetheinyl transferase | AID 1490 | Q9F4F7 | Potency, µM, for the others: max response, negative = inhibition, hits mostly inhibitors | Biochemical Sfp PPTase activity, qHTS | 310,000 compounds, 3.5% hits; active = well fitted inhibition curve with a large enough effect; inconclusive = small, poorly fitted or top-dose-only effect, or another doubt; inactive = no such curve, though single readings can be large or run the other way;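 note: the enzyme is Sfp with the accession as filed and its product quenches rhodamine fluorescence; potency is the fitted concentration of half-maximal effect; 0% = enzyme reaction without inhibitor and -100% = no enzyme wells; top concentration of the series not given in the record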
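Step 1, compound plus 15 nM Sfp-PPTase, 15 min, room temperature. Step 2, add rhodamine-CoA (5 uM) and BHQ-2-YbbR (12.5 uM). Step 3, read 525/598 nm fluorescence at 0 and 30 min.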
gsp agonist: agonists of gsp mutant (McCune-Albright syndrome); Potency, µM (doses to about 76.9 µM), inactives show at the top dose activation (cAMP increase), hits mostly activators; 340,000 compounds, 0.13% hits; AID 624287; gsp mutant cells, cAMP HTRF, 30 min; control for the full effect not named in the record; active = well fitted activation curve with a large enough effect; inconclusive = small, poorly fitted or top-dose-only effect, or another doubt; inactive = no such curve, though single readings can be large or run the other way; cell line not stated here;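 note: phosphodiesterase inhibitor Ro 20-1724 added with compounds to block cAMP breakdown; potency is the fitted concentration of half-maximal effect; nearly all actives have a fitted effect of over 60% in size; about a fifth of the inactives were tested at one dose only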
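Cells in DMEM/10% FBS with G418 were pretreated with compounds in DMSO plus […] (300 uM stock) for 30 min at 37C. cAMP was measured by HTRF (cAMP-d2 plus anti-cAMP antibody-K) after 30 min at room temperature.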
ClpP mod: qHTS Assay for Activators of ClpP. ATP-dependent Clp protease proteolytic subunit (Bacillus subtilis (strain 168)), P80244. purified B. subtilis ClpP, FRET peptide cleavage, 20 min. Potency, µM (top dose mostly 57.5 µM), inactives show at the highest dose activity change, negative = active. 340,000 compounds, 1.9% hits; active = well fitted falling curve with a large enough effect; inconclusive = small, poorly fitted or top-dose-only effect; inactive = no such curve, though single readings can be large or run the other way; note: potency is the fitted concentration of half-maximal effect; the source files actives as falling curves though it sought activators and does not explain the sign; nearly all actives have a fitted effect of over 65% in size; many hits overshoot -100%
Target sequence (P80244 whole entry, looked up): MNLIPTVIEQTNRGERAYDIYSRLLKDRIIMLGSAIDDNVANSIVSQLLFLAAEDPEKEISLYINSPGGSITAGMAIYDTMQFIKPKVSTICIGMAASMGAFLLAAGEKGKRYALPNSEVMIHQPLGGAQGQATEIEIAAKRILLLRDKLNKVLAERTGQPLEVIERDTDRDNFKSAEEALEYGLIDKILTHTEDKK
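Buffer: 100 mM Tris/HCl pH8, 100 mM KCl, 0.05% low protease BSA, 2.5% glycerol, 0.01% Tween-20. ClpP 10 microg/mL final; 20 min RT; delta FRET normalized to ADEP and DMSO controls.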
* hit, by the source's call; ? = inconclusive; . = no result given; & = joins results of further samples; [ ] = dose if it differs, or a comment.

SMILES	D2 PAM	Menin MLL FP FL	gsp antag	TRPV1 potentiator	Sfp inh	gsp agonist	ClpP mod
O=C(C1=C[C@H](C2CCCCC2)C[C@H](OCCCCO)O1)N1CCN(Cc2ccccc2)CC1	-16	4.1	-6%	-15	-4%	-15%	0.1%
Cc1ccc(CNC(=O)C(C)OC(=O)c2cccs2)cc1 (stereo not given)	3	4.6	2%	3	3%	-5%	0.1%
O=C1CN(C(=O)CN2CCOCC2)C(c2ccccc2)c2cc(Br)ccc2N1 (stereo not given)	-6	-0.3	-3%	0	-3%	?	-0.3%
COc1ccc(N(C(=O)C2CCCCC2)S(=O)(=O)c2cccc3cccnc23)cc1	-3	4.3	-18%	3	-3%	-14%	.
CCOC(=O)C1C(=O)OC(C)(C)C1C(C)C(=O)c1ccc(C)cc1 (stereo not given)	-5	5.0	-3%	-9	13%	-1%	0.6%
Cc1ccc(C(=O)N(c2ccccn2)C(C)c2ccco2)cc1C (stereo not given)	7	1.6	-6%	-4	10%	-24%	-1.1%
CCc1nn(CC(=O)N2CCN(c3ccc(F)cc3)CC2)c(=O)c2cc3occc3n12	-13	.	-10%	-1	20%	10%	-5.6%
Cc1ccc(S(=O)(=O)N2CCN(C(=O)c3cc4c(C)nn(-c5ccccc5C)c4s3)CC2)cc1	-38	-1.1	-16%	-1	7%	2%	-1.9%
N#Cc1ccc(-c2ccc(OCC(O)CN3CCOCC3)cc2)cc1 (stereo not given)	2	-2.1	?	5	-2%	-24%	3.5%
Cn1cc(C(=O)N2CCN(c3ccccc3)CC2)c(=O)c2cc(S(=O)(=O)N3CCCC3)ccc21	-4	.	3%	15	-1%	26%	-2.1%&-3.1%
Cc1ccccc1Nc1scc(-c2ccc(Cl)cc2)[n+]1-c1ccccc1C	-3	-1.5	-2%	-2	10%	-66%[inhibitor]	-0.5%
COc1ccc(NC(=O)[C@@H]2CCCN2S(=O)(=O)c2ccc(Cl)cc2)cc1	-7	.	0%	.	.	0%[15.4 µM]	-0.6%
Cc1ccc(C)c(OCCSc2nnc(-c3cccnc3)n2N)c1	-24	2.3	14%	5	-3%	?	2.7%
CC(C)(C)c1ccc(C(=O)C2CCCN(C(=O)C3CCOCC3)C2)cc1 (stereo not given)	-8	-3.0	1%	4	-8%	3%[15.4 µM]	.
Cc1ccc(S(=O)(=O)N2CCCCC2)cc1NC(=O)[C@@H]1CCCN1C(=O)c1cccs1	1	.	-3%	-1	.	1%	-0.6%
CC(C)(C)OC(=O)C[C@H]1C/C=C\C[C@H](CC(=O)N(CCO)Cc2ccccc2)C(=O)NC[C@H](c2ccccc2)OC1=O	-12	.	-11%	.	.	-11%	0.4%
COc1cc(Nc2ccc(C(=O)O)cc2[N+](=O)[O-])cc(OC)c1	-14	-0.7	?	8	-3%	-3%	0.9%
COc1cccc(C(=O)C(=O)c2cccc(OC)c2OC)c1OC	0	.	-4%	.	.	-9%	.
CC(=O)c1sc(NC(=O)c2ccc(F)c(S(=O)(=O)N3CCOCC3)c2)nc1C	-3	.	?	-6	.	15%	0.3%
CCCCN(CCCC)NC(=O)c1ccccc1	-4	4.0	.	-1	17%	22%[15.4 µM]	.
O=C(O)C(=Cc1ccc([N+](=O)[O-])cc1)CCc1ccccc1	-3	.	.	.	.	?	-0.4%
Cc1ccc2nc3c(cc(C(=O)NCC4CCCO4)c(=N)n3C3CCCC3)c(=O)n2c1 (stereo not given)	-4	-1.0	-3%	-28	7%	29%	.
CC1Cc2ccccc2N1C(=O)c1cc2c(=O)n3ccccc3nc2n1C (stereo not given)	-5	5.8	16%	2	6%	?	-11%
COC(=O)c1nn(-c2ccc(Oc3ccccc3)cc2)c(=O)cc1O	24	-0.3	-16%	-3	21%	-12%	.
Cc1cc(C)n(C(CC(=O)O)C(=O)O)n1 (stereo not given)	-6	-0.6	-4%	-13	1%	?	-2.0%
COc1ccc(C(C)=O)cc1COC(=O)c1cnc(C)cn1	23	5.1	22%	2	11%	?	-0.6%
C=C(C)CSc1nnc(CCNC(=O)OC(C)(C)C)o1	5	-0.5	-1%	0	14%	-35%	-2.7%
CCCCOc1ccc(C2C(C(=O)c3ccc(C)o3)=C(O)C(=O)N2CC2CCCO2)cc1 (stereo not given)	-20	6.2	8%	4	-36%	?	0.5%
COCCN1C=C2C(=O)C(C)(OC(=O)C3CCCC3)C(=O)C=C2C=C1c1ccsc1 (stereo not given)	-13	-5.5[11.7 µM]	-4%	?	-1%&10%	-3%	-7.9%
Cc1cccc(C=CC(=O)c2ccccc2)c1	-17	.	-6%	.	.	-1%[15.4 µM]	0.4%
COc1ccccc1OCc1nn[nH]n1	-5	-0.5	2%	-5	5%	11%[15.4 µM]	0.2%
O=C(Nc1cc2c(cc1Br)OCCCO2)c1ccccc1	-13	3.8	-5%	-12	-7%	-53%[inhibitor]	-2.2%
Nn1c(=O)[nH]c2ccccc2c1=O	-36	0.1	-8%	17	16%	.	-28%
Cc1ccc(-n2nnnc2SCC(=O)NC2CC2)cc1C	-2	2.7	2%	-13	9%	-18%	-0.3%
Cc1ccc2nc(SCC(=O)NCc3ccco3)[nH]c2c1	-8	5.9	-6%	-9	11%	10%	-1.5%
CSc1nsc(SCC(=O)Nc2ccc(NC(C)=O)cc2)n1	5	-2.1	-5%	-8	-5%	-8%[15.4 µM]	.
CS(=O)(=O)N(CC(=O)NCc1ccc(Cl)cc1)C1CCCCC1	-9	1.7	0%	-50	10%	-35%[inhibitor]	0.7%
COc1ccc(/C=C/C(=O)N(C)c2ccccc2C(=O)O)cc1	17	0.7	-43%	-7	0%	12%[15.4 µM]	.
CCCS(=O)(=O)Nc1cccc(-c2nc3cccnc3s2)c1	2	-1.3	9%	-30	-2%	?	-6.3%
CCN(CCCNC(=O)Cn1ncc2c([nH]c3ccccc32)c1=O)Cc1ccccc1	-24	.	1%	5	-2%	7%	4.1%
CC(C)(C)OC(=O)NC1CCN(S(=O)(=O)c2ccc3c(c2)OCCO3)CC1	-1	-1.1	-4%	1	4%	3%	-0.8%
COc1ccc([N+](=O)[O-])cc1NCc1ccccc1C	-25	1.5	-15%	.	-17%	-25%	0.4%
O=C(C1=C[C@H](C2CC2)C[C@H](OCc2ccc(CO)cc2)O1)N1CCN(Cc2ccc3c(c2)OCO3)CC1	-16	0.8	-19%	20	5%	.	-0.2%
Cc1ccc(NC(=O)Nc2ccccc2CC[N+](=O)[O-])cc1	-10	5.5	5%	-8	5%	6%[15.4 µM]	.
CC(C)(C)c1cc(-c2ccccc2)n[nH]1	5	0.9	13%	3	11%	?	0.8%
Cc1nn(-c2ccccc2)c2c1C(c1ccc([N+](=O)[O-])cc1)C(C#N)=C(N)O2 (stereo not given)	-13	3.6	-22%	-38	-12%	-7%	-0.1%
COc1ccc(NC(=O)CN(C)C(=O)c2ccc(C)s2)cc1	-6	0.9	5%	-20	13%	-15%	-0.7%
O=C(NCCCc1ccccc1)C1CCC(=O)N(Cc2ccc(Cl)cc2)C1 (stereo not given)	-21	9.2	-17%	-12	16%	-10%	1.1%
CC(C)(C)CC(C)(C)N=C1Nc2ccccc2NC12C[C@H]1CCC(=O)N3CC[C@@H](C2)[C@@H]13 (stereo not given in full)	-40	.	-15%	.	.	.	1.6%&2.7%
COc1ccc(S(=O)(=O)N(C)CC(=O)Nc2cccc(C(C)=O)c2)cc1Cl	1	0.4	-16%	19	10%	-3%	-1.5%
COc1cc(C(=O)OCC(=O)N(C)c2ccccc2)cc(OC)c1OC	3	.	2%	6	12%	32%[15.4 µM]	0.4%
O=C(NN=C1CCCC1)c1cc(Br)ccc1O	-5	3.2	-1%	-11	8%	?	0.9%
CCOCCOC(=O)C(C)Oc1ccc(Oc2ncc(Cl)cc2Cl)cc1 (stereo not given)	-7	2.9	-30%	-10	17%	-25%	1.6%
COc1ccc(CCN(C)C(=O)C23CC4CC(CC(Cl)(C4)C2)C3)cc1OC	-6	.	-5%	-8	10%	-7%[15.4 µM]	-0.9%
Cc1ccc(F)c(NC(=O)CCOc2ccccc2C)c1	-2	5.0	-8%	2	-2%	24%	-0.2%
CC(=O)OC1CCC2C3CCc4cc(OP(=O)(N5CC5)N5CC5)ccc4C3CCC12C (stereo not given)	-10	.	.	.	.	17%	-1.7%
CCc1ccccc1-n1nnnc1SCC(=O)Nc1ccc(N2CCN(C)CC2)cc1	-16	.	1%	-5	6%	?	1.1%
CC(=O)Nc1ccc(NC(=S)NC(=O)c2oc3ccccc3c2C)cc1	-4	6.4	10%	-8	-4%	7%	1.0%
O=C(CSc1nnc(-c2ccc3c(c2)OCCO3)o1)N1CCCC1	-2	8.4	-9%	-5	-5%	1%	17%
CCCC(=O)Nc1sc2c(c1C#N)CCCCC2	-19	1.4	-8%	-9	-3%	26%	-1.2%

Later entries
SMILES	D2 PAM	Menin MLL FP FL	gsp antag	TRPV1 potentiator	Sfp inh	gsp agonist	ClpP mod
Fc1ccc(CNC(=S)Nc2ccc(OC(F)F)cc2)cc1	-10	1.1	5%	9	1%	-20%	-4.1%
COc1ccc(C(=O)NCCc2nc3cc([N+](=O)[O-])ccc3n2C)cc1	-17	1.7	-10%	10	-2%	-14%	-12%
COC(=O)N/N=C/c1cc(Cl)cc(Cl)c1OCc1ccc(F)cc1	-33	.	-6%	-9	6%	-46%[inhibitor]	-6.6%
COc1cc2ncnc(N[C@H](C)c3ccccc3)c2cc1OC	-26	-0.1	?	-13	0%	-6%	?
COc1ccc(C2CC(=O)N(CC(=O)NCC3CCCO3)c3ccccc3S2)cc1 (stereo not given)	-2	-8.2	0%	-45	6%	?	-0.9%

Of the compounds above, 3 contain a cyano group:
SMILES	D2 PAM	Menin MLL FP FL	gsp antag	TRPV1 potentiator	Sfp inh	gsp agonist	ClpP mod
N#Cc1ccc(-c2ccc(OCC(O)CN3CCOCC3)cc2)cc1 (stereo not given)	2	-2.1	?	5	-2%	-24%	3.5%
Cc1nn(-c2ccccc2)c2c1C(c1ccc([N+](=O)[O-])cc1)C(C#N)=C(N)O2 (stereo not given)	-13	3.6	-22%	-38	-12%	-7%	-0.1%
CCCC(=O)Nc1sc2c(c1C#N)CCCCC2	-19	1.4	-8%	-9	-3%	26%	-1.2%
